Screening results deposited in PubChem BioAssay by National Center for Advancing Translational Sciences (NCATS).
Marburg entry = blocks Marburg virus binding or cell entry. Marburg virus pseudotype entry/binding inhibition, cell-based; control for the full effect not named in the record; many of its hits are not listed in these tables. Potency, µM (series often up to 49.2 µM), without a hit: top-dose activity change, negative = inhibition, hits mostly inhibitors. hit rate 6.5% among 18,000; active means well fitted inhibition curve with a large enough effect; inconclusive means small, poorly fitted or top-dose-only effect; inactive means no such curve, though single readings can be large or run the other way; tested in HEK293 cells; also: luciferase read-out
Lassa entry = Lassa virus entry inhibition; Lassa virus pseudotyped entry inhibition, cell-based qHTS; control for the full effect not named in the record; many of its hits are not listed in these tables; Potency, µM (highest dose often 49.2 µM), for inactives: at the highest dose activity change, negative = inhibition, actives largely listed as inhibitors; hit rate 4.1% among 18,000; AID 720533; active = well fitted inhibition curve with a large enough effect; inconclusive = small, poorly fitted or top-dose-only effect; inactive = no such curve, though single readings can be large or run the other way; tested in HEK293 cells; also: luciferase read-out
The depositor's hits bear a star; ? = inconclusive; & = joins results of further samples; ! = not confirmed by another sample; [ ] = remark or other dose. % is scaled to controls: 0 for no effect and ±100 for the full control effect; potency is read from the fitted curve at half-maximal effect. These rows are one share of the data; count on the stated rates, not on these rows.

No.	Structure	Marburg entry	Lassa entry
1	NC(=O)n1c(O)c(C(=O)c2cccs2)c2cc(Cl)ccc21	1.8%&12.9%	-9.7%&-7.7%
2	CCCCCC(=O)O[C@@]1(C(C)=O)CCC2C3CCC4=CC(=O)CC[C@@]4(C)C3CC[C@]21C (some centres not stated)	10µM*	22.4µM*
3	NS(=O)(=O)c1cc2c(cc1C(F)(F)F)NC(Cc1ccccc1)NS2(=O)=O (configuration not stated)	17.3%[17.8 µM]	3.8%[17.8 µM]
4	CCN(CC)C[C@@H]1CCCCN1CC(=O)N1c2ccccc2C(=O)Nc2cccnc21	-21.6%	-0.9%
5	CCCOc1ccccc1-c1nc2n[nH]nc2c(=O)[nH]1	7.7%	-5.3%
6	CCOC(=O)[C@H](CCc1ccccc1)N[C@@H](C)C(=O)N(CC(=O)O)C1Cc2ccccc2C1	12.2%	?
7	O=c1cc(-c2ccc(O)cc2)oc2cc(O)ccc12	53.7%[activator]	24.4%
8	CC[C@H]1OC(=O)C[C@@H](O)[C@H](C)[C@@H](O[C@@H]2O[C@H](C)[C@@H](O)[C@H](N(C)C)[C@H]2O)[C@@H](CCN2C[C@H](C)C[C@H](C)C2)C[C@@H](C)C(=O)/C=C/C(C)=C/[C@@H]1CO[C@@H]1O[C@H](C)[C@@H](O)[C@@H](OC)[C@H]1OC	?	-5.7%
9	Nc1nccs1	7.0%	18.4%
10	O=C(Nc1ccc(Cl)cc1)Nc1ccc(Cl)c(C(F)(F)F)c1	11.2µM*	14.1µM*
11	CCN(CC)CCOc1ccccc1C(=O)CCc1ccccc1	?	?
12	COc1cc(N)c(Cl)cc1C(=O)NC1CCN(CCCOc2ccc(F)cc2)CC1OC (configuration not stated)	-16.2%[17.8 µM]	-16.6%[17.8 µM]
13	O=c1cc[nH]c(=O)[nH]1	-11.3%	-10.2%
14	CCCOC(=O)c1ccccc1	5.1%&22.3%	-11.6%&-8.8%
15	Nc1ccc(C(=O)Nc2ccccc2N)cc1	13.8%	2.1%
16	CCCC(=O)O	24.3%	-4.3%
17	CC(=O)[C@H]1CC[C@H]2[C@@H]3C[C@H](C)C4=CC(=O)CC[C@]4(C)[C@H]3[C@@H](O)C[C@]12C	-17.3%[17.8 µM]	-14.2%[17.8 µM]
18	CCNC(=O)/C=C/c1cccc(Br)c1	21.5%	-1.6%
19	O=C(O)CCC/C=C\C[C@H]1C(=O)C[C@@H](O)[C@@H]1/C=C/[C@@H](O)CCc1ccccc1	1.7%&2.7%	8.5%&-4.9%
20	Nc1cc(-c2ccncc2)c[nH]c1=O	11.9%	-16.6%
21	CCOC(=O)c1cccc(N)c1	14.8%	3.9%
22	O=C(O)CN1C(=O)c2cccc3cccc(c23)C1=O	5.6%&15.8%	-13.2%&9.5%
23	CC1(C)OC2CC(=O)OCC23C1CC(=O)C1(C)C3CC[C@@]2(C)[C@H](c3ccoc3)OC(=O)C3OC312 (some centres not stated)	1.8%	-11.9%
24	CC1=NN(c2ccccc2)C(=O)C1	?	?
25	C=CCN1C(=O)C(CC(C)C)NC1=S (configuration not stated)	2.8%&1.9%	-0.7%&-5.4%
26	CC(=O)NCCCCCC(=O)O	9.7%	17.5%
27	C[C@H]1[C@H](C)CC[C@]2(C(=O)O)CC[C@]3(C)C(=CCC4[C@@]5(C)C[C@@H](O)[C@H](O)[C@@](C)(CO)[C@@H]5CC[C@]43C)[C@H]12 (some centres not stated)	16.7%	1.0%
28	C#C[C@]1(OC(C)=O)CC[C@H]2[C@@H]3CCC4=C/C(=N/O)CC[C@@H]4[C@H]3CC[C@@]21CC	-14.6%	28.2µM*
29	CN1CCC(=C2c3ccccc3CCc3sccc32)CC1	11.2µM*	22.4µM*!
30	CCN(CC)C(=O)Nc1ccc(OCC(O)CNC(C)(C)C)c(C(C)=O)c1 (configuration not stated)	25.4%	-0.4%
31	COC(=O)c1cccnc1	0.5%&13.2%	-5.4%&-1.6%
32	N/C(=N\N=C\c1ccc(Cl)cc1)N/N=C/c1ccc(Cl)cc1	0.9%	-17.4%
33	CC(C)Cn1cnc2c1c(=O)n(C)c(=O)n2C	24.5%	-3.1%
34	COc1cccc(CCc2ccccc2OCC(CN(C)C)OC(=O)CCC(=O)O)c1 (configuration not stated)	11.2µM*	22.4µM*
35	CCCSS/C(CCO)=C(\C)N(C=O)Cc1cnc(C)nc1N	7.5%	?
36	COc1ccccc1OCC(O)COC(N)=O (configuration not stated)	6.1%[17.8 µM]	2.2%[17.8 µM]
37	CC(C)[C@@H]1CC[C@@H](C)C[C@H]1OC(=O)c1ccccc1O	-13.4%	-10.3%
38	O=S(=O)(O)c1ccc2nc(-c3ccccc3)[nH]c2c1	-1.3%	?
39	C=CC(C)(O)CC/C=C(\C)CCC=C(C)C (configuration not stated)	12.5%	4.6%
40	CN(C)CCCSc1ccccc1NC(=O)/C=C\c1ccccc1	?	-2.1%
41	CC1c2ccccc2CN1NC(=O)c1ccc(Cl)c(S(N)(=O)=O)c1 (configuration not stated)	-16.3%	-19.0%
42	CCCCCCCC/C=C\CCCCCCCCN	10.5%	1.7%
43	OC1(c2ccc(Cl)c(C(F)(F)F)c2)CCN(CCCC(c2ccc(F)cc2)c2ccc(F)cc2)CC1	2.82µM*	11.2µM*
44	Cc1coc2c1C(=O)C(=O)c1c-2ccc2c1CCCC2(C)C	0.9%&-15.8%&-23.5%	3.8%&0.2%&-7.5%
45	C=CCSCC=C	-14.4%	5.0%
46	CC(=O)c1ccc(OCC(=O)N2CCCCC2)cc1	27.8%	-0.5%
